VDR inh = Inhibitors of the vitamin D receptor (VDR): qHTS; VDR-SRC2-3 peptide fluorescence polarization, 2 h; Potency, µM, for inactives: max response, negative = inhibition, actives largely listed as inhibitors; 400,000 tested, 0.93% active; AID 504847, 2011; active = well fitted inhibition curve with a large enough effect; inconclusive = small, poorly fitted or top-dose-only effect, or another doubt; inactive = no such curve, though single readings can be large or run the other way; also: series mostly up to about 120 µM
Target sequence (P11473 whole entry, looked up): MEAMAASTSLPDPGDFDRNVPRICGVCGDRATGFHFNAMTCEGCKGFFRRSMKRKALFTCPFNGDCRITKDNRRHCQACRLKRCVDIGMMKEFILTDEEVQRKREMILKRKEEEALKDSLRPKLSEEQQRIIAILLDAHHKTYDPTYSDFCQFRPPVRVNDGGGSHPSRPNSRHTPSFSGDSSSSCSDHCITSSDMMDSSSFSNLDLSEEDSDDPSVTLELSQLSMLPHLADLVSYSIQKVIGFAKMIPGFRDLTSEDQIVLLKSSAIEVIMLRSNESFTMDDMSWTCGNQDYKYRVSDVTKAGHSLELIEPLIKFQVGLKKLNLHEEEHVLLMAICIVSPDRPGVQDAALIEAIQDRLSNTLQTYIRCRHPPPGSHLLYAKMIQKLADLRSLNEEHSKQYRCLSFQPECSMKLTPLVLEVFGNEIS
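VDR–SRC2-3 interaction, FP format. Cmpds 23 nl via pintool, brief spin, 2 h ambient incubation.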
* marks the source's active call; other numbers are inactive results; ? = inconclusive; & = joins results of further samples; [ ] = remark or other dose. % is scaled to controls: 0 for no effect and ±100 for the full control effect; potency is read from the fitted curve at half-maximal effect. The list is partial; rates above refer to the full screens.

Structure	VDR inh
Nn1c(SCC(=O)NCCC2=CCCCC2)nnc1-c1cccnc1	-7.7%
Clc1ccc2c(N/N=C/c3ccccc3Br)ccnc2c1	0.7%
CCOC(=O)CNC(=O)O[C@H]1C(=O)c2cc(OC)ccc2O[C@@H]1c1ccc(OC)c(Br)c1	2.0%
FC(F)(F)c1cccc(Cc2noc(CN3CCC(N4CCCCC4)CC3)n2)c1	-8.7%
Cc1ccc(NC(=O)CSc2nnnn2C2CC2)cc1S(=O)(=O)N1CCOCC1	-8.2%
Cc1ccc(S(=O)(=O)NNC(=O)c2ccc(O)cc2)cc1	-12.4%
COc1ccc(NC(=O)CN(C)C(=O)C2CC(=O)N(c3ccc4c(c3)OCCO4)C2)cc1 (configuration not stated)	-7.3%
Cc1ccc(SCc2noc(-c3c(C)noc3C)n2)cc1	-0.3%
COc1ccc(-c2nn(CCC#N)cc2C=C(C#N)C#N)cc1	?
C/C=C/C=C/C(=O)Nc1nccs1	-6.4%
COC(=O)CCC(C)C1CCC2C3C(C[C@H](O)C12C)C1(C)CC[C@@H](O)CC1C[C@H]3O (some centres not stated)	4.5%
COc1ccc(S(=O)(=O)N2CCC3CC2c2cc(N4CCOCC4)ccc23)cc1 (configuration not stated)	-0.2%
O=C(CNC(=O)c1ccccc1Cl)NCC(c1cccs1)N1CCOCC1 (configuration not stated)	-2.9%
COc1ccc(Cc2nnc(SCc3nc4ccccc4c(=O)[nH]3)o2)cc1	-6.4%
COc1ccc(C(=O)Nc2cc(Cl)ccc2OC(=O)c2ccc(OC)cc2)cc1	0.0%
Cc1ccc(CNCc2c(C(=O)O)c(C)n(Cc3ccc(C)cc3)c2C)cc1	15.5%
O=[N+]([O-])c1ccc(O)c(C=Nc2cccc3ncccc23)c1	10.7%
O=C(O)c1ccc(/C=C/c2nc3ccccc3c(=O)[nH]2)cc1	-5.9%
CCOc1ccc(C(=O)C(C)OC(=O)Cn2c(C)csc2=O)cc1 (configuration not stated)	5.5%
Cc1ccc(C#CC[N+]2(CC#Cc3ccc(C)cc3)CCCCC2)cc1	2.5%
Cc1ccc(S(=O)(=O)NCC2CCC(C(=O)O)CC2)cc1 (configuration not stated)	3.7%
CC(C)Cn1c(N)c(C(=O)COC(=O)c2ccccc2F)c(=O)n(C)c1=O	-9.0%
CNc1oc(-c2ccccc2F)nc1S(=O)(=O)c1ccc(C)cc1	-16.1%
COC(=O)c1sccc1NC(=S)NCc1ccc(Cl)cc1	9.1%
CCOc1ccc(CCNC(=O)COC(=O)c2ccc(S(=O)(=O)N3CCCC3)cc2)cc1OCC	-10.5%
O=C(CCn1cnnn1)Nc1ccccc1F	-19.2%
CCCCn1c(=O)[nH]c(=O)c2c1nc(-c1cccc(OC)c1)n2C	30.2%[activator]
N#C/C(C(=O)N1CCCC1)=C1/N=C(N)c2ccccc21	0.5%
Cc1ccc(NC(=S)NC2CC3CCCC(C2)N3Cc2cccs2)cc1 (configuration not stated)	-11.7%
C/C(CC(C)(C)c1ccccc1)=N\NS(=O)(=O)c1ccccc1	?
COc1ccc(CC(=O)N[C@@H](CCSC)C(=O)N2CCC3(CC2)NCCc2[nH]cnc23)cc1	-1.0%
CCOC(=O)Cc1csc(NS(=O)(=O)c2ccc(SC)cc2)n1	-5.0%
O=C(COc1ccc2c3c(c(=O)oc2c1)CCC3)N[C@@H](Cc1ccccc1)C(=O)O	-2.8%
C#CCOc1ccc(C2CC(=O)Nc3c2c(C)nn3-c2nc(C)cc(C)n2)cc1 (configuration not stated)	10.7%
COc1cc(-c2noc(-c3cccc(Cl)c3)n2)cc(OC)c1OC	2.6%
O=C(c1cccs1)N(Cc1ccccn1)Cc1ccco1	-1.9%
COC(=O)[C@H](C)[C@H]1C[C@]1(C)[C@H](NC(=O)OCc1ccccc1)c1ccccc1	-7.2%
O=C(CSc1nnc(-c2cccs2)o1)Nc1cccc(C(F)(F)F)c1	-1.3%
COc1ccc(Cn2c(-c3ccc(OC)cc3)n[nH]c2=S)cc1	1.0%
c1ccc(CNc2ncnc3c2oc2ccccc23)nc1	-6.4%
CNC(=S)N/N=C/c1ccc(OCC(=O)Nc2c(C)cc(C)cc2C)c(OC)c1	?
COc1ccc(CC(=O)c2ccc(OC)c(OC)c2C)cc1OC	0.4%
CCCCOc1ccc(C(O)(CC)CCN2CCOCC2)cc1 (configuration not stated)	-10.1%
CC(C)(C)c1nnc2sc(SC/C(O)=C(\C#N)c3nc4ccccc4[nH]3)nn2c1=O	-8.9%
O=C(Nc1nonc1NC(=O)c1cccs1)c1cccs1	?
COc1cc(S(=O)(=O)Nc2ccccc2C)ccc1Cl	-9.0%
CCOC(=O)Cn1c(O)c(N=NC(=O)CNC(=O)Cc2ccccc2)c2ccccc21	0.5%
CCOc1ccccc1CNC(=O)Cn1c(=O)oc2ccccc21	-6.9%
Clc1nnc(N2CCCCC2)c2ccccc12	-2.5%
CCOC(=O)c1cc(C)sc1NC(=O)C1CCC1	8.4%

(listing goes on)
Structure	VDR inh
Cc1ccccc1OCC1Cc2c(nc(N)c(C#N)c2N)O1 (configuration not stated)	11.1%
Cc1cc(C(=O)N2CCN(c3ccc(F)cc3)CC2)c2c(C)nn(-c3cccc(Cl)c3C)c2n1	11.7%
CCCCn1c(N)c(N(CC)C(=O)CN2C(=O)NC(C)(c3ccccc3)C2=O)c(=O)[nH]c1=O (configuration not stated)	-2.3%
Cc1ccc(C)c(N2CCN(C(=O)CSc3ccsc3[N+](=O)[O-])CC2)c1	-4.5%
S=c1[nH]nc(-c2cccs2)n1/N=C/c1cn(-c2ccccc2)nc1-c1cccs1	3.1%
COc1ccc(C(=O)c2c(C)oc3ccc(O)cc23)c(OC)c1	-0.6%
O=C(Nc1ccccc1C(=O)N1CCN(Cc2ccccc2)CC1)c1ccccc1	-13.0%
Cc1c(C(=O)Nc2cccc(S(=O)(=O)N3CCOCC3)c2)oc2ccc(Br)cc12	5.0%
O=C(CCS(=O)(=O)c1ccc(Br)cc1)N1CCN(c2ccccc2)CC1	-0.9%
COCCNC(=S)N/N=C/c1ccc2c(c1)OCCO2	-16.2%
CCOc1ccc(C(=O)NCCc2csc(-c3cccc(C)c3)n2)cc1	2.8%
CCN(C(=O)CN1CCC(C(=O)OC)CC1)c1c(N)n(Cc2ccccc2)c(=O)[nH]c1=O	10.3%
Cc1ncsc1CCC(=O)N1CCCC(Nc2ccc(F)c(F)c2)C1 (configuration not stated)	-10.2%
c1ccc(CCCc2nc(-c3cccnc3)no2)cc1	-2.7%
COc1ccc(NC(=O)CCN2C(=O)[C@@H]3[C@H](C2=O)[C@H]2C=C[C@@H]3C2)cc1	-24.2%
Cc1ccc(S(=O)(=O)c2nnn3c2nc(NC2CCN(Cc4ccccc4)CC2)c2ccccc23)cc1C	9.6%
Cc1ccc(CNC(=O)C2CCN(C(=O)c3cnn(-c4ccccc4)c3-n3cccc3)CC2)cc1	-6.6%
CCc1c(C2(O)CCCCC2)[nH]c2ccc(C#N)cc12	-2.0%
CCCC[C@@H]1CNCCN1CC1(c2ccccc2)CC1	4.6%
CC(=O)N1CCN(S(=O)(=O)c2cccc(C(=O)OCC(=O)N(Cc3ccccc3)C(C)(C)C)c2)CC1	-17.8%
CCCC[N+](CC#Cc1ccccc1)(CCCC)CCCS(=O)(=O)[O-]	42.5%[activator]
Cc1cccc(NC(=O)c2ccc(S(=O)(=O)N3CCC(C)CC3)cc2)n1	-8.6%
O=C(CSc1ncccc1-c1nc2ccccc2[nH]1)Nc1ccc2c(c1)OCCO2	11.5%
COc1ccc(OC)c(S(=O)(=O)Nc2cccnc2)c1	-5.4%
O=C(Nc1ccccc1C(=O)N/N=C/c1ccccc1)c1ccco1	-0.9%

Four structures from above, sorted by formula weight, lowest first.
Structure	VDR inh
Cc1ccc(C)c(N2CCN(C(=O)CSc3ccsc3[N+](=O)[O-])CC2)c1	-4.5%
O=C(CSc1ncccc1-c1nc2ccccc2[nH]1)Nc1ccc2c(c1)OCCO2	11.5%
O=C(CCS(=O)(=O)c1ccc(Br)cc1)N1CCN(c2ccccc2)CC1	-0.9%
CC(=O)N1CCN(S(=O)(=O)c2cccc(C(=O)OCC(=O)N(Cc3ccccc3)C(C)(C)C)c2)CC1	-17.8%

Going on with the list.
Structure	VDR inh
CN1CCN(/N=C/c2ccc(Br)cc2)CC1	4.7%
Fc1ccc(-n2nnc(-c3ccnc4ccccc34)n2)cc1	-4.1%
O=S(=O)(c1ccc(F)cc1)N1CCN(CC(O)COc2ccccc2F)CC1 (configuration not stated)	1.9%
Cc1cccc(N2CCN(C(=O)c3ccoc3C)CC2)c1C	-5.4%
COc1ccc(Cn2c(CNS(=O)(=O)c3ccc(Cl)s3)nc3cccnc32)cc1	6.9%
Cc1ccc(-n2ncc(C(=O)NC3CCCCC3)c2C2CCN(C(=O)OC(C)(C)C)CC2)cc1	11.4%
COc1c(/C=N/Nc2nc(N3CCCCC3)nc(N3CCCCC3)n2)cccc1[N+](=O)[O-]	-0.2%
COc1cc(C(=O)NNC(=S)NC(=O)c2ccccc2C)cc(OC)c1OC	-2.1%
Cc1ccc(-c2csc(NC(=S)NC(=O)c3cc4ccccc4o3)n2)cc1	-10.4%
CCOC(=O)Cc1csc(SCc2cc(=O)oc3cc(O)ccc23)n1	4.7%
O=C(Oc1cccnc1)c1cc(S(=O)(=O)N2CCOCC2)ccc1Cl	?
COc1ccc(C(=O)Sc2nncc3ccccc23)cc1	6.6%
O=C(CSc1cn(CCNC(=O)c2ccccc2F)c2ccccc12)Nc1ccc2c(c1)OCCO2	-9.2%
O=C(c1ccc(F)cc1)N1CCN(c2ncccn2)CC1	0.8%
Cc1ccc(OCC(=O)N/N=C\c2ccc(C)o2)c(C)c1	8.8%
C=CCOc1ccc(C2/C(=C(\O)c3ccc4c(c3)OCCO4)C(=O)C(=O)N2CCCN2CCOCC2)cc1 (configuration not stated)	-6.7%
CN(C)C(CNC(=O)C1CCN(S(=O)(=O)c2cc(Cl)ccc2Cl)CC1)Cc1ccccc1 (configuration not stated)	-9.5%
COC(=O)c1ccccc1NC(=O)CN(Cc1ccccc1)S(C)(=O)=O	-5.7%
Nc1nnc(-c2cccc(Cl)c2Cl)c(N)n1	-0.5%&-7.3%&-21.3%
COC(=O)c1ccc(NC(=O)c2ccc3c(c2)C(=O)N(C)C3=O)cc1	-6.8%
O=C(NC1CCCC1)C(c1ccc(F)cc1)N(C(=O)c1csnn1)C1CC1 (configuration not stated)	-7.3%
COc1ccc(S(=O)(=O)N2CC(C)N(C(=O)N(C)C)C2C)cc1 (configuration not stated)	-15.1%
CCOC(=O)c1cnc(SCc2ccc(C)cc2)nc1N	-8.1%
Cc1nn(C)c2nc(-c3cccs3)cc(C(F)(F)F)c12	-16.5%
COc1ccc(C(=O)c2cn(Cc3ccccc3F)c3ccc(F)cc3c2=O)cc1	0.4%
COc1ccc(Br)cc1C(=O)N/N=C/c1ccc2c(c1)n(C)c(=O)n2C	1.9%
COCCN1Cc2cccc(C(=O)Nc3ccc(-c4nc5ccccc5[nH]4)cc3)c2C1=O	16.0%
COc1ccc(NS(=O)(=O)c2ccc(Br)s2)cc1OC	12.2%
O=[N+]([O-])c1ccc(N2CCN(Cc3cccc([N+](=O)[O-])c3)CC2)cc1	-19.5%
O=C(c1ccc(N2C(=O)C3CC=C(Cl)CC3C2=O)cc1)N1CCOCC1 (configuration not stated)	-14.5%
COc1ccc2cc(-c3cc(C(=O)O)c4ccccc4n3)ccc2c1	-3.3%
c1ccc(CSc2ccc(-c3cccs3)nn2)nc1	-5.3%
C/C(=N/Nc1ccc(C)cc1)C1(C)N(O)C(C)(C)C(c2ccco2)=[N+]1[O-] (configuration not stated)	2.7%
Cc1ccc(S(=O)(=O)Nc2ccccc2C(N)=O)cc1	-5.4%
COc1ccc(C2CC(C(F)(F)F)n3nc(C(=O)NCCCn4ccnc4)cc3N2)cc1OC (configuration not stated)	1.1%
Cc1ccc(S(=O)(=O)N2CCC(C(=O)N[C@@H](C)C(=O)NCc3ccco3)CC2)cc1	13.5%
COc1cccc(CNC(=O)Cn2ccc3cc(S(=O)(=O)N4CCCC4)ccc32)c1OC	-26.5%&15.7%
C/C(=N\N1CCCCC1)c1ccccc1O	1.0%
COC(=O)/C=C/C1=CN(Cc2ccccc2)CCC1=O	-8.5%
O=C(Cn1c(=O)c2cccn2c2ccccc21)NCCc1ccc(Cl)cc1	4.6%
CC(OC(=O)c1cccc(S(=O)(=O)N2CCCCCC2)c1)C(=O)Nc1ccc(S(N)(=O)=O)cc1 (configuration not stated)	5.5%
COCCN(Cc1cc2cc3c(cc2nc1Cl)OCO3)C(=O)Nc1ccc(OC)cc1	-6.4%
COc1ccc(NC(=O)/C=C/c2ccc(Cl)cc2)cc1	0.5%
CN(C)S(=O)(=O)c1cccc(NC(=O)c2ccc(N3CCOCC3)c([N+](=O)[O-])c2)c1	-11.2%
O=C1CC(=O)N(c2cccc(F)c2)N1	-24.4%
Cc1cc(OCC(=O)NCC(C)C)cc(C)c1Br	-14.2%
Cc1cccc(N2CCN(c3nc4ccc(Cl)cc4n4cnnc34)CC2)c1C	-9.8%
O=C(NC1CCCCC1)c1ccc2c(c1)N(Cc1ccccc1Cl)C(=O)c1ccccc1S2	13.6%
COc1ccc(/C=N/n2cnnc2)cc1Oc1nc(Cl)ncc1F	-1.7%
CC(=O)OCCN(CCCn1c(-c2ccncc2)nc2ccccc21)c1nc(CN2CCCCC2)cs1	6.8%
Nc1cc(=O)nc(SCC(=O)NC2CCCCC2)n1-c1ccccc1	13.3%
O=C1C=C(c2ccc(F)cc2OCc2ccccc2)C[C@@H](c2ccc(F)cc2)C1	7.7%
